Bioassay records deposited in PubChem by several laboratories.
PABP FP inh – PABP-poly(A) binding inhibition. inhibition, % at 35 µM. PABP-poly(A) RNA binding, fluorescence polarization. 1% of 290,000 active;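 active means 50% or more with normal probe brightness, or confirmed in later tests; about a fifth of its hits are not listed in these tables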;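 further: calls also rest on retests at 20 µM and on dose response follow-up; controls were probe without protein and protein plus probe with vehicle; some compounds called inactive have numbers as strong as hits; many hits fall short of the cut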
Env fusion inh – inhibitors of HIV Env-mediated cell fusion | 1.1% of 360,000 active | HeLa-JRFL Env/CEM21 cell fusion, luciferase | inhibition, % at 12.3 µM;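 active means mean replicate inhibition score of at least 50 and every replicate individually at or above 50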;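 further: 0% = plate neutral controls and 100% = maraviroc near 300 nM; one replicate is shown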
CSC inhib – blocks cancer stem cells; cancer stem cell-like cells viability, luminescence; inhibition, % at 7.5 µM; 1.1% of 300,000 active; AID 2717;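 active means mean at 75% or more and at least half the replicates too; tested in HMLE shEcad cells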;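 further: 0% = median of negative and 100% = median of positive control wells; the first replicate is given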
Yeast UUG start – alters start codon recognition fidelity in yeast; activity score, % at 18.7 µM; AID 602363; 0.13% of 350,000 active; S. cerevisiae UUG-firefly luciferase reporter, luminescence/redox ratio;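 active means replicate mean at a twofold rise or more, about +100% in these data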;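 further: firefly luciferase made from a UUG start codon reports start codon fidelity; reporter light over untreated wells divided by growth signal over untreated wells; some hits fall short of that in this replicate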
MT1-MMP act inh – inhibitors of human MT1-MMP activation. HT1080 RFP-PRO-GFP cells, GFP/RFP ratio fluorescence, overnight; percent of plate control window, DMSO zero. P50281. 0.061% of 360,000 active. GFP/RFP ratio change, % at 20 µM. AID 651647;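 active means GFP/RFP ratio change of at least 30% with cell ATP level not reduced by more than half and red fluorescence within 50% of control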; further: strong numbers were not always called active
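Assay system: HT1080 RFP-PRO-GFP cells. Benchmarks: DMSO vehicle wells and RFP-L50D-GFP reporter cell wells. Times: overnight cell settling, then overnight compound exposure, 37 °C, 5% CO2. Compound: 20 µM single dose, 1% DMSO. Read-out basis: GFP/RFP fluorescence ratio.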
Rce1 inh – yeast Ras-converting enzyme inhibition. Q03530. yeast membranes, quenched prenylated peptide cleavage fluorescence. calls only. 0.27% of 290,000 active. AID 2563;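 active means fall in fluorescence gain of 50% or more versus controls, with final raw signal at or below 3038400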;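 further: plate controls were neutral control wells for no effect and wells lacking membranes for full effect; tested at 10 µM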
Target sequence (Q03530 whole entry, looked up): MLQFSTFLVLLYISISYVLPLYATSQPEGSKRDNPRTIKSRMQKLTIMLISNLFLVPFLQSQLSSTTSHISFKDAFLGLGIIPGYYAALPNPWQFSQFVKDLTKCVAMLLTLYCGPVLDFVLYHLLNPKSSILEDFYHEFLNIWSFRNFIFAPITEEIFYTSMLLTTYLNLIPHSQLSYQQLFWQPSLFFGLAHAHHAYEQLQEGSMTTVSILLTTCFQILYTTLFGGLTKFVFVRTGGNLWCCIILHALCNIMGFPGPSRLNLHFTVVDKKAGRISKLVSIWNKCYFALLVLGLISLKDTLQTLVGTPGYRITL
eIF4H inh – inhibitors of RNA binding by human eIF4H | 0.94% of 290,000 active | inhibition, % at 35 µM | eIF4H fluorescence polarization binding assay | Q15056 | AID 2012;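 active means 50% or more with normal probe brightness, or confirmed in later tests; about a fifth of its hits are not listed in these tables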;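 further: calls also rest on retests at 20 µM and on dose response follow-up; 0% = protein and probe with vehicle and 100% = probe without protein; strong numbers were not always called active; many hits fall short of the cut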
eIF4H inh retest – second read-out of eIF4H inh, no call of its own (marks repeat the call); inhibition, %; compound at 20 µM; confirmation average;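 mean of two retest wells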
PABP FP inh retest – further read-out of PABP FP inh, marked with its call; inhibition, %; compound at 20 µM; confirmation repeats;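 mean of two retest wells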
MT1-MMP act inh RFP – recorded beside MT1-MMP act inh, whose call it bears; RFP signal change, %; measured here: RFP expression control read;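 0 = vehicle wells; hits needed this value within 50% of zero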
An asterisk follows results filed as active; i = inactive; . = no result given; & = joins results of further samples.

SMILES | PABP FP inh | Env fusion inh | CSC inhib | Yeast UUG start | MT1-MMP act inh | MT1-MMP act inh RFP | Rce1 inh | eIF4H inh | others
CC1(C)CC(Nc2ccc(Nc3ccccc3)cc2)CC(C)(C)N1 | 11 | 26 | 7 | . | -3 | 2 | i | -11
CCc1c(C)nc(SCC(=O)N2CCc3ccccc32)[nH]c1=O | -2 | . | . | . | . | . | i | 0
Cc1cccc(C2CC(c3ccc(F)cc3)Nc3nc(N)nn32)c1 (stereo not given) | -1 | -8 | -5 | -18 | -3 | 1 | i | -3
COc1cccc(/C=N/NC(=O)c2c(-c3ccccc3)noc2C)c1O | -13 | . | 48 | . | 0 | 0 | i | 3
Cc1ccc2cc(CCNC(=O)c3cccs3)c(=O)[nH]c2c1C | -5 | -121 | -6 | -22 | 2 | -2 | i | -4
OCC[C@H]1C[C@@H](O)[C@H](O)[C@]2(OCCCc3ccccc32)O1 | . | 7 | 4 | -8 | 1 | 0 | . | .
COCCNC(=O)CCCCCN1C(=O)CCC1=O | -8 | . | -13 | 27 | 1 | 4 | i | -4
CN1CCN(S(=O)(=O)c2ccc(Cl)cc2)CC1 | 3 | -2 | -4 | -17 | 1&5 | 3&9 | i | 11
COc1ccccc1Oc1ccc(S(=O)(=O)Nc2cccnc2)cc1 | 3 | 40 | -10 | 0 | -2 | -22 | i | -12
CCN(CC)CCOc1ccc(/C(=C(/Cl)c2ccccc2)c2ccccc2)cc1 | -12&-1 | 37&5 | 101* | -9&0 | -8&2 | -15&-3 | i | -5&0
COc1cn(-c2ccccc2)nc1C(=O)Nc1ccccc1 | 2 | -5 | -18 | -11 | -2 | -1 | i | 3
CCN1CCN(C(=O)c2cc(-c3cccnc3)nc3ccc(Br)cc23)CC1 | -4 | -36 | 0 | -5 | -1 | 1 | i | 4
Nc1nc(-c2ccc(Cl)cc2Cl)cn1N | -6 | . | 9 | -14 | -4 | 2 | i | 1
Cc1cccc(N2CCN(C(=O)c3ccc4c(c3)OCCO4)CC2C)c1 (stereo not given) | -10 | 5 | 20 | 10 | 2 | 4 | i | -9
O=C(NCCCn1ccnc1)c1cc(-c2ccc3c(c2)OCO3)on1 | -10 | . | -7 | -5 | 6 | 0 | i | -7
Cc1ccccc1NC(=O)CN1CCC(C(=O)c2ccc3c(c2)OCCO3)CC1 | 0 | 10 | -1 | 2 | -4 | -4 | . | -2
Cc1c(C(=O)N2CCOCC2)sc2ncnc(N3CCc4ccccc4C3)c12 | -8 | . | 7 | -22 | 2 | 2 | i | 7
O=C1NNC(c2ccccc2)=N/C1=C\c1ccco1 | 50* | 4 | 0 | -22 | -6 | 1 | i | 40 | eIF4H inh retest=40;PABP FP inh retest=51*
S=C(NCc1ccco1)N1CCN(C(c2ccccc2)c2ccccc2)CC1 | -2 | -10 | 2 | -24 | -12 | -5 | i | -9
CCOC(=O)c1c(C)[nH]c(C(=O)COC(=O)/C=C/c2ccc(OC(F)F)cc2)c1C | -4 | -53 | . | -2 | -1 | 3 | i | 1
CCOc1ccc(NC(=O)N2CCC(c3ccc(C)cc3)C2)cc1 (stereo not given) | -15 | -24 | -8 | . | -2 | -3 | i | -3
Cc1c(C)n(CCc2ccccc2)c2ncnc(NCCO)c12 | 2 | -35 | 1 | 0 | 0 | 2 | i | -1
CN(CC(=O)Nc1ccc(Cl)c(Cl)c1)CC(=O)N1CCc2ccccc21 | . | 14 | . | 15 | 6 | 5 | . | .
COC(=O)c1ccc(S(=O)(=O)NNC(=O)c2ccc(S(=O)(=O)N3CCCCC3)cc2)cc1 | -8 | . | -4 | . | 3 | 2 | i | 4
Cc1cc(O)c(/C=N/OCc2ccc(Cl)cc2Cl)c(=O)o1 | -2 | -25 | 6 | -26 | 1 | 0 | i | -10

5 consecutive entries out of the list so far:
SMILES | PABP FP inh | Env fusion inh | CSC inhib | Yeast UUG start | MT1-MMP act inh | MT1-MMP act inh RFP | Rce1 inh | eIF4H inh | others
S=C(NCc1ccco1)N1CCN(C(c2ccccc2)c2ccccc2)CC1 | -2 | -10 | 2 | -24 | -12 | -5 | i | -9
CCOC(=O)c1c(C)[nH]c(C(=O)COC(=O)/C=C/c2ccc(OC(F)F)cc2)c1C | -4 | -53 | . | -2 | -1 | 3 | i | 1
CCOc1ccc(NC(=O)N2CCC(c3ccc(C)cc3)C2)cc1 (stereo not given) | -15 | -24 | -8 | . | -2 | -3 | i | -3
Cc1c(C)n(CCc2ccccc2)c2ncnc(NCCO)c12 | 2 | -35 | 1 | 0 | 0 | 2 | i | -1
CN(CC(=O)Nc1ccc(Cl)c(Cl)c1)CC(=O)N1CCc2ccccc21 | . | 14 | . | 15 | 6 | 5 | . | .

(more compounds)
SMILES | PABP FP inh | Env fusion inh | CSC inhib | Yeast UUG start | MT1-MMP act inh | MT1-MMP act inh RFP | Rce1 inh | eIF4H inh | others
CC(=O)c1ccc(/C=C/c2nc3ccccc3n2C)o1 | 19 | -63 | -3 | -23 | -5 | 6 | i | 20
Cn1c(N)c(C(=O)COc2ccc(C#N)cc2)c(=O)n(C)c1=O | 18 | -20 | -2 | . | -10 | -2 | i | 0
COc1ccc(C(C)NC(=O)c2ccncc2)cc1 (stereo not given) | 0 | -39 | -8 | -15 | -5 | -5 | i | -8
COc1cc(NC(=O)c2cccs2)c(C(=O)OCC(=O)NC(C)c2ccccc2)cc1OC (stereo not given) | -6 | -97 | -15 | 1 | 6 | -1 | i | -4
COC(=O)c1cc(C(=O)Nc2ccc(S(N)(=O)=O)cc2)cc([N+](=O)[O-])c1 | -10 | -2 | -15 | . | 4 | -3 | i | -1
COc1ccc(/C=C(\NC(=O)c2ccc(OC)c(OC)c2)C(=O)N2CCN(C)CC2)cc1 | 12 | 0 | -4 | -1 | -2 | -3 | i | 2
O=C(Nc1ccccc1N1CCOCC1)c1cccnc1 | -7 | 3 | -9 | -8 | -2 | 3 | i | 4
Nc1nc(-c2nc3ccccc3[nH]2)cs1 | -2 | -76 | -3 | -43 | 3 | -1 | i | 3
Cc1onc(-c2ccccc2)c1C(=O)Nc1ccc(S(=O)(=O)N2CCOCC2)cc1 | -3 | 3 | 2 | 6 | 1 | -2 | i | -5
CCOc1ccc(C(=O)OCC(=O)c2c(N)n(C)c(=O)n(C)c2=O)cc1OCC | -4 | . | -2 | 1 | 1 | -2 | i | -7
Cc1cccc(Nc2c([N+](=O)[O-])cc(C(=O)N3CC(=O)Nc4ccccc43)cc2[N+](=O)[O-])c1 | 2 | 28 | -16 | -9 | 4 | -6 | i | -2
c1ccc(-c2cc3nc(NCC4CC4)nc(NCC4CCCCC4)c3s2)cc1 | . | -173 | . | -23 | 6 | -24 | . | .
N#CCCn1c(C2CCCCC2)nc2ccccc21 | -1 | . | -28 | -5 | 3 | 2 | i | 2
COc1ccc(C2CC(=O)c3cnc(NC(=O)c4ccccc4OC)nc3C2)c(OC)c1 (stereo not given) | -1 | . | -5 | -3 | -10 | -4 | i | -6
CC(NCC(=O)Nc1ccccc1C(=O)NC1CC1)c1cccc(C(F)(F)F)c1 (stereo not given) | . | 6 | -4 | 4 | -1 | -1 | . | .
Cc1ccc(N/C=C2\C(=O)N(c3ccc(F)cc3F)C(c3cccnc3)S2(=O)=O)cc1 (stereo not given) | 0 | 11 | 9 | . | 10 | 0 | i | -12
O=C(NCCC1CCCCN1S(=O)(=O)c1ccc(F)cc1)C(=O)NCc1cccnc1 (stereo not given) | . | . | -15 | -28 | -1 | 1 | i | .
Cc1ccc([N+](=O)[O-])cc1S(=O)(=O)Nc1ccc(C(=O)NCC2CCCO2)cc1 (stereo not given) | . | 8 | . | -13 | 4 | -1 | . | .
CCCn1c(-c2ccc(F)cc2)cnc1SCC(=O)O | 17 | -15 | 14 | -9 | 0 | 1 | i | 0
CC(=O)Nc1c(O)nc(SCC(=O)Nc2nnc(SCc3ccccc3)s2)[nH]c1=O | 1 | -15 | 5 | . | -1 | 7 | i | 10
NC(=O)C1CC(=O)N(c2ccc(OCC(=O)Nc3ccc(Cl)cc3)cc2)C1 (stereo not given) | 0 | -17 | -11 | -22 | 0 | 0 | i | 2
CSc1cc(C)c(OCC(=O)Nc2ccc(NC(C)=O)cc2)c(C)c1 | 5 | -1 | 5 | . | 0 | 1 | i | -2
COC(=O)Cc1ccc2sc(-c3ccccc3)nc2c1 | -4 | -114 | 7 | -56 | 0 | 0 | i | -9
CC(=O)Nc1ccc(N/C=C/C(=O)c2ccc(C)o2)cc1 | -5 | . | 0 | -21 | -12 | 7 | i | -5
COc1ccc(/C=C(\NC(=O)c2ccccc2)C(=O)N/N=C/c2ccncc2)cc1 | 0 | . | 2 | -16 | 2 | 2 | i | -1

Following part.
SMILES | PABP FP inh | Env fusion inh | CSC inhib | Yeast UUG start | MT1-MMP act inh | MT1-MMP act inh RFP | Rce1 inh | eIF4H inh | others
O=C(CSc1ncn[nH]1)Nc1ccccc1C(=O)O | 3 | . | 2 | -5 | 1 | 5 | i | 2
C[C@H](NC(=O)[C@H]1N2C(=O)c3ccccc3C2SC1(C)C)C(=O)N1CCC[C@H]1CO (stereo not given in full) | 1 | . | -10 | -10 | -1 | 5 | i | -6
CC(C)(C)OC(=O)N(Cc1ccccc1)Cc1ccccc1OCc1ccc(NC(=O)C2CCC2)cc1 | . | 16 | . | -11 | -6 | -14 | . | .
Cc1ccc(-c2nc(NC(=O)CSc3cc(C)c4ccccc4n3)ns2)cc1 | 7 | -14 | 27 | -13 | -2 | 5 | i | -6
CCOC(=O)C(NC(C)=O)(Nc1ccc(S(=O)(=O)Nc2cc(C)on2)cc1)C(F)(F)F (stereo not given) | -5 | . | . | 3 | -2 | 2 | i | 6
CCOC(=O)c1ccc2c(c1)nc(SCC(=O)NC(C)C)n2CC | 13 | -20 | -4 | -16 | 4 | -2 | i | -5
CC(C)CN(CC(C)C)c1nnc(N)s1 | 2 | -14 | 9 | -20 | -2 | -1 | i | 6
Cc1ccc(NC(=O)N2CCCC2C(=O)Nc2c(C)cc(C)cc2C)cc1 (stereo not given) | -7 | 0 | -7 | -12 | -1 | 3 | i | 2
Cc1c([N+](=O)[O-])c([N+](=O)[O-])nn1CC(=O)NCCc1ccccc1 | -2 | 2 | -15 | . | 0 | -2 | i | -3
Cc1cc(SC(C)C(=O)Nc2ncc(Cl)cc2Cl)nc2ccccc12 (stereo not given) | -8 | 3 | 24 | 3 | -12 | -8 | i | -9
COc1ccc(NC(=O)COC(=O)c2cccn2C)cc1S(=O)(=O)N1CCCCC1 | . | 38 | -4 | 10 | 1 | -11 | . | .
O=S(=O)(NC1=NCCC1)c1ccc(F)cc1F | 11 | 3 | -3 | . | -2 | 1 | i | -2
C=CCCC(=O)N1C[C@H]2CON(C)[C@H]2C[C@H]1c1cccc(N2CCOCC2)c1 | . | 1 | . | -5 | 3 | 2 | . | .
COc1ccccc1N1CCN(C2CCCN(Cc3ccc(Cl)cc3)C2)CC1 (stereo not given) | -7 | 34 | 15 | -2 | -1 | -8 | i | -5
N#Cc1ccccc1NC(=O)COC(=O)CCc1ccccc1 | 3 | 8 | . | 10 | 2 | 4 | i | -1
COc1ccc(CC(=O)NNC(=O)c2cnccn2)cc1 | 6 | 16 | 1 | -8 | -2 | 3 | i | 3
CCO[C@H]1OC(C(=O)O)=C[C@@H](C)[C@@H]1CCCO | 13 | 11 | -10 | -19 | -1 | 3 | i | -1
CN(N)c1nc(N2CCCC2)nc(N2CCCC2)n1 | . | -1 | -3 | . | -1 | -1 | i | .
O=c1cc(/C=C/c2ccccc2)oc2ccccc12 | 4 | -198 | 7 | -10 | 2 | -2 | i | -8
O=C(CN1C(=O)CSCC1=O)Nc1ccc2c(c1)OCO2 | -6 | -12 | -8 | . | -1 | 6 | . | 26
CCC(C)NC(=O)N[C@@H](Cc1ccccc1)C(=O)O (stereo not given in full) | 0 | . | 3 | -5 | 1 | 3 | i | -5
CCCCNC(=O)C1(N2C(=O)c3ccccc3C2=O)CCCC1 | . | -32 | . | -13 | 1 | 2 | . | .
